# Source: PubChem
# BJeLR lethal: BJeLR cell viability loss; BJeLR (HRASV12) viability, CellTiter-Glo ATP luminescence, 48 h; reference of the scale not given here; inhibition, % (test concentration not listed); actives 0.17% (n = 300,000);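 active = replicate mean above 50%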;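 also: 50 nL library stock added to about 25 µL; numbers are from one replicate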
# PrP 5UTR inh: inhibition of PrP 5' UTR reporter expression; cell-based PrP 5' UTR mRNA reporter, plate reader; inhibition, % (concentration not given with the values); actives 0.35% (n = 340,000);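 active = every replicate at 50% or more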;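 also: 0 = median of the neutral control wells; tested in H4 reporter cells; numbers are from one replicate; inactives centre near -14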
# Sa RN4220 lethal: kills Staphylococcus aureus RN4220. S. aureus RN4220 growth, OD600, 16 h. inhibition, % (no concentration beside the values). actives 0.33% (n = 330,000);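 active = z-score of -3 or lower and OD600 up to 0.18 on both plates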;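 also: plate controls were untreated cells for no effect and reference antibiotic for full effect; stock transfer was 100 nL into about 80 µL; one replicate is shown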
# Sa ugtP lethal: compounds lethal to S. aureus RN4220 ugtP deletion mutant; actives 0.54% (n = 330,000); AID 1259309; OD600 growth, 16 h; some inactives read as strong as hits; growth inhibition, % (test concentration not listed);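 active = z-score under -3 and OD600 up to 0.15 on both plates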;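 also: plate controls were untreated wells for no effect and antibiotic for full effect; wells of about 80 µL received 100 nL stock; the first replicate is given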
# Mtb hypoxia inh: reduces hypoxia-regulated biosensor signal in M. tuberculosis | M. tuberculosis hypoxia-regulated fluorescent reporter, fluorescence | fluorescence inhibition, % (test concentration not listed) | actives 0.1% (n = 300,000);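 active = 35 to 45% if threefold the growth effect, above 45% if 1.5-fold the growth effect; inactive = the rest, general growth blockers included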;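 also: wells of about 50 µL received 100 nL stock; 0% = vehicle wells and 100% = reference inhibitor wells; whole bacteria with a GFP reporter of the hypoxia response; strong numbers were not always called active; many hits fall short of the cut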
# Autofluor counter: flagged as autofluorescent in microsphere protease counterscreen; compound autofluorescence counterscreen, microsphere flow cytometry; hits give high values; actives 3.1% (n = 360,000); fluorescence intensity (test concentration not listed);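 active = at least 3 SD above the mean of all compounds, about 16000 in these data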;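 also: 100 nL of 1 mM stock went into each well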
# Mtb hypoxia inh growth: second read-out of Mtb hypoxia inh, no call of its own (marks repeat the call); growth inhibition, %; measured here: M. tuberculosis growth (absorbance);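 0% = vehicle and 100% = reference antibiotic; read after six days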
# The depositor's hits bear a star; . = not tested or not shown.
SMILES,BJeLR lethal,PrP 5UTR inh,Sa RN4220 lethal,Sa ugtP lethal,Mtb hypoxia inh,Mtb hypoxia inh growth,Autofluor counter
Cc1ccccc1Cn1c(=N)n(CC(=O)c2ccco2)c2ccccc21,-1,5,-0.5,-15,4,4,3654
CC[C@@H](C)[C@H](CNC)NC[C@@H](Cc1cccc2ccccc12)NCCc1cccc(C(F)(F)F)c1,13,-1,.,.,.,.,3573
CCOc1ccc2nc(N=Cc3nc(-c4ccccc4)oc3O)sc2c1,.,.,1.8,38,14,2,.
C/C(=N\Nc1ccc(S(N)(=O)=O)cc1[N+](=O)[O-])c1cccnc1,2,-13,.,.,.,.,4804
Cc1ncc(CN2CCCC(C(=O)c3cccc(OC(C)C)c3)C2)s1 (configuration not stated),-4,-36,4.2,5,11,11,2600
O=C(NCCCN1CCCC1=O)c1ccc(S(=O)(=O)Nc2ccccc2F)cc1,1,-23,3.2,1,1,-6,6031
C[C@H](NC(=O)c1nc[nH]c1C(=O)N[C@@H](Cc1ccccc1)C(=O)OC(C)(C)C)C(=O)OCc1ccccc1,6,-26,.,.,.,.,3577
CC(NC(=O)C(C)N1c2cccc3cccc(c23)S1(=O)=O)c1ccccc1 (configuration not stated),-6,-29,3.8,-5,14,7,5392
COc1ccccc1-n1c(SCC(=O)Nc2cc(C)on2)nc2c([nH]c3ccccc32)c1=O,5,-11,6.9,-4,3,7,5674
O=C(NC(Cc1c[nH]c2ccccc12)C(=O)O)/C(=C\c1ccccc1)NC(=O)c1ccccc1 (configuration not stated),2,-12,1.7,6,-12,-7,4245
O=C(CCN1C(=O)S/C(=C\c2ccccc2)C1=O)N1CCOCC1,-4,-28,1.6,-6,.,.,4348
c1ccc(-c2cn3ccccc3n2)cc1,.,32,3.5,3,14,3,2971
CC1=C([N+](=O)[O-])C(c2ccc3c(c2)OCO3)N(C)C(=O)N1C (configuration not stated),-10,-14,.,.,.,.,3472
O=C(Cn1c(=O)n(CCC(=O)N2CCc3ccccc3C2)c(=O)c2ccccc21)NCC1CCCO1 (configuration not stated),4,-20,2.2,3,.,.,2541
O=C(CN1CCN(c2ccccn2)CC1)N1CCc2ccccc21,-5,-14,2.0,12,4,2,3666
Cc1ccnc(NS(=O)(=O)c2ccc(NC(=O)Cc3ccc(Cl)cc3)cc2)n1,-4,-8,4.6,8,6,3,3870
Cc1ccc2[nH]c(CCN(C)C)c(CN3CCOCC3)c2c1,.,-3,0.6,-2,2,13,3939
O=C(c1ccc2nccnc2c1)N1CCN(c2cccc(C(F)(F)F)c2)CC1,.,-6,1.7,-4,-6,12,4162
COc1ccc(-c2c(-c3ccc4c(c3)OCO4)noc2C)cn1,-4,-14,.,.,.,.,3911
CC(=O)c1ccccc1NC(=O)CSc1nc2ccccc2c(=O)n1CCCN1CCOCC1,.,-14,1.4,2,3,2,4075
COc1ccc(C=NNC(=O)c2nonc2N)cc1OC,.,.,1.9,9,10,6,.
COc1ccc(OCC(=O)Nc2ccccc2Cl)cc1,8,-20,2.2,7,4,6,3772
CS(=O)(=O)N1CCC(C(=O)Nc2ccccc2Sc2ccccc2)CC1,12,-10,1.2,2,7,6,4176
Cc1cc(NC(=O)c2ccc(NC(=O)CC(C)C)cc2)no1,-2,-12,1.9,-5,5,15,19975*
O=C(Nc1cccnc1)c1cccc(S(=O)(=O)N2CCCC2)c1,8,-14,8.0,4,16,4,4537
CNC(=O)c1c(O)c2cccc3c2n(c1=O)CC3,6,-5,-5.3,-3,9,11,3454
C[C@@]12C(=O)N(Cc3ccco3)CC(=O)N1C1c3cc(Cl)ccc3OCC1C2c1ccccc1 (some centres not stated),.,.,1.7,3,-6,1,.
CCc1ccc(OCC(=O)Nc2ccc(CN3CCCCC3)cc2)cc1,2,-12,-2.2,5,10,8,2039
Cc1ccc(C2(C)NC(=O)N(CC(=O)Nc3ccc(-c4nc5ccc(C)cc5s4)cc3)C2=O)cc1 (configuration not stated),12,10,-6.2,14,11,4,4342
O=C(NN=Cc1ccc([N+](=O)[O-])o1)c1cn(-c2ccccc2)nc1-c1ccc(F)cc1,.,.,71,98*,-5,-2,.
COc1ccc(NC(=O)CN2C(=O)CSc3ccc(S(=O)(=O)N4CCC(C)CC4)cc32)cc1,-12,-7,0.9,2,5,4,5006
CC1CN(CCn2cnc3c(N)ncnc32)CC(C)O1 (configuration not stated),5,-15,2.9,1,-10,-3,4693
Cn1c(=O)n(Cc2ccco2)c(=N)c2c3c(sc21)CCC3,.,-33,-0.3,-2,-3,0,10827
COc1cccc(/C=C/C(=O)OCC(=O)Nc2cccc(S(=O)(=O)N3CCCCC3)c2)c1OC,-17,-10,.,.,.,.,2125
NC(=O)C1(N2CCCCC2)CCN(c2nc(-c3ccc(Br)cc3)cs2)CC1,21,-2,-9.8,9,1,4,7739
CCOC(=O)c1c(-c2ccc(OC)cc2)csc1/N=C/C1C(=O)CCCC1=O,-1,-14,.,.,.,.,4776

# Random excerpt: six compounds from above
SMILES,BJeLR lethal,PrP 5UTR inh,Sa RN4220 lethal,Sa ugtP lethal,Mtb hypoxia inh,Mtb hypoxia inh growth,Autofluor counter
CC1CN(CCn2cnc3c(N)ncnc32)CC(C)O1 (configuration not stated),5,-15,2.9,1,-10,-3,4693
CCc1ccc(OCC(=O)Nc2ccc(CN3CCCCC3)cc2)cc1,2,-12,-2.2,5,10,8,2039
Cn1c(=O)n(Cc2ccco2)c(=N)c2c3c(sc21)CCC3,.,-33,-0.3,-2,-3,0,10827
COc1ccc(NC(=O)CN2C(=O)CSc3ccc(S(=O)(=O)N4CCC(C)CC4)cc32)cc1,-12,-7,0.9,2,5,4,5006
Cc1ccc(C2(C)NC(=O)N(CC(=O)Nc3ccc(-c4nc5ccc(C)cc5s4)cc3)C2=O)cc1 (configuration not stated),12,10,-6.2,14,11,4,4342
O=C(Nc1cccnc1)c1cccc(S(=O)(=O)N2CCCC2)c1,8,-14,8.0,4,16,4,4537

# Next part:
SMILES,BJeLR lethal,PrP 5UTR inh,Sa RN4220 lethal,Sa ugtP lethal,Mtb hypoxia inh,Mtb hypoxia inh growth,Autofluor counter
COc1ccc(CCNC(=O)CSc2nc3[nH]ncc3c(=O)n2-c2ccccc2Br)cc1OC,-1,-11,.,.,.,.,4311
O=C(CSc1nnc(CNc2cccc(Cl)c2)o1)OC1CCCCC1,3,-10,13,1,17,9,3571
CCN(CC(=O)Nc1ccccc1OC)C(=O)Cn1cnc2ccccc2c1=O,4,-4,0.5,-3,.,.,3029
CN(C)S(=O)(=O)c1ccc(C(=O)Nc2nnc(SCC(=O)NCC3CCCO3)s2)cc1 (configuration not stated),5,3,2.4,2,-5,2,5818
N#Cc1cc2c(nc1SCC(=O)Nc1nccs1)CCCCC2,18,-64,1.6,-11,-7,-4,20116*
CC(C)N(C(=O)[C@H]1C[C@H](CC(=O)NCC23CC4CC(CC(C4)C2)C3)C(=O)N2CCc3c([nH]c4cc(CCC(=O)N(C)C)ccc34)[C@]12C)C(C)C,.,8,3.1,-14,0,3,3528
O=C(CSc1ccc2nnc(-c3cccnc3)n2n1)Nc1cccc(F)c1,-4,-4,4.5,5,0,5,4320
COc1ccccc1CC(=O)Nc1cc(Cl)ccc1O,-14,-14,-4.6,-14,4,5,18515*
COc1ccc2cc(C(=O)COC(=O)COc3ccc4c(C)cc(=O)oc4c3)ccc2c1,1,-14,6.0,-6,2,6,2104
CCCCNC(=O)COC(=O)c1ccc(N(C)C)cc1,9,-34,-1.2,-14,-6,13,4448
CC1CCC(NC(=O)c2ccc(/C=C3\Oc4ccccc4N(C)C3=O)cc2)CC1 (configuration not stated),-6,.,9.6,2,17,2,.
CC(C)N=C(NS(=O)(=O)c1ccc(Br)cc1)c1ccc(Cl)cc1,-1,-3,5.7,6,9,6,3090
CCOC(=O)C(C)Sc1nnc(-c2ccccc2O)n1-c1ccc(C)cc1 (configuration not stated),5,-14,5.0,8,4,1,9452
CCOc1c(C)cnc2c1c(=O)n(Cc1cccc(Cl)c1)c(=O)n2C,15,-13,-3.6,-5,7,14,5518
CC(C)n1c(=O)n(CC(=O)NCC2CCCO2)c(=O)c2c3c(sc21)COC(C)(C)C3 (configuration not stated),6,-8,2.8,5,-1,-6,4674
Cc1ccc(N(C)C(=O)CN(C)S(=O)(=O)c2ccc3c(c2)n(C)c(=O)c(=O)n3C)cc1,5,-2,4.6,3,9,0,6180
O=C(O)CCCCCNc1ncnc2ccc(Br)cc12,6,6,1.6,-4,-5,-1,2019
CCOc1ccc(C(=O)C(C)OC(=O)C2CCN(c3ccc(C(F)(F)F)cn3)CC2)cc1 (configuration not stated),-2,-25,-2.0,11,4,9,6364
O=C1Nc2ccc([N+](=O)[O-])cc2C1(O)N1CCCCC1 (configuration not stated),-2,-19,6.8,8,2,-4,7301
CN1/C(=C\C(=O)CSc2nnc(N)s2)C(C)(C)c2ccccc21,5,-24,2.5,0,15,10,2656
Cc1ccc(CS(=O)Cc2ccc(C(=O)N3CCN(c4ccc(F)cc4)CC3)o2)cc1 (configuration not stated),-2,-16,-3.3,29,3,1,5347
CCOC(=O)C1CCN(c2c(N3CCN(c4ccccc4OC)CC3)c(=O)c2=O)CC1,.,-1,3.2,7,4,2,5071
COc1ccc(NC(=O)Cn2cc(S(=O)(=O)Cc3ccccc3)c3ccccc32)c(OC)c1,-3,-5,3.0,-6,8,2,2654
O=c1[nH]c(Nc2ccccc2)cc2ccccc12,-2,-12,-6.8,10,.,.,2218
C[C@H](CO)N1C[C@H](C)[C@@H](CN(C)C(=O)Nc2ccc(C(F)(F)F)cc2)Oc2c(NC(=O)C3CCCCC3)cccc2C1=O,.,-15,-0.6,-10,1,0,3515
COc1ccc(N(CC(=O)Nc2cccc(C(C)=O)c2)S(C)(=O)=O)cc1OC,6,-21,12,-2,-4,8,.
Cc1ccc(NC(=O)COC(=O)c2nn(-c3ccc(Cl)cc3)cc2O)cc1,.,-29,-0.6,-12,4,2,3418
CCc1cccc(OCC(=O)Nc2ccc(C(=O)O)cc2NC(=O)COc2cccc(CC)c2)c1,-14,0,3.7,-7,2,-2,5958
Cc1ccc(CNC(=O)C2CCC(=O)N(CCc3ccc(Cl)cc3)C2)cc1 (configuration not stated),11,-39,5.9,4,3,0,7407
c1cncc(-c2cccnc2)c1,-14,-74,3.2,-2,4,4,8807
CCOc1ccc2c(c1)C(=O)C(=O)N2CC1COc2ccccc2O1 (configuration not stated),7,-27,7.8,9,0,5,3931
CC(C)C(=O)Nc1cccc(C(=O)Nc2cc([N+](=O)[O-])ccc2Cl)c1,-7,-14,-0.7,-1,-3,5,2013
C=CCN1C=C2C(=O)C(C)(OC(=O)CCC(=O)OC)C(=O)C=C2C=C1C1CC1 (configuration not stated),10,-28,4.3,-5,14,8,3275
COc1ccccc1NS(=O)(=O)c1cc(NC(=O)C(C)NC(N)=O)ccc1N1CCCC1 (configuration not stated),.,-8,4.9,4,-1,-2,.
CCC(=O)Nc1ccc(/C(C)=N/NC(=O)c2c(-c3ccccc3Cl)noc2C)cc1,-1,-13,.,.,.,.,10175
CC(C)C1C(=O)CC(c2ccccc2)NC1c1ccccc1 (configuration not stated),-2,-12,0.9,1,16,6,3989
COc1cc(NS(=O)(=O)c2ccc(NC(=O)COc3ccc(C)cc3C)cc2)nc(OC)n1,6,-22,-0.4,-10,5,8,10263
CCO[C@H]1OC(C(=O)N2CCN(C)CC2)=C[C@@H](c2ccc(C(F)(F)F)cc2)[C@@H]1CCCO,2,-10,.,.,.,.,3659
CC=CC(=O)Nc1cccc(C2=NOC3(C2)CC(C(N)=O)N(C(=O)c2cc([N+](=O)[O-])cc([N+](=O)[O-])c2)C3)c1 (configuration not stated),.,.,1.4,1,40*,20*,.
O=S(=O)(Cc1ccc(Cl)cc1)Nc1ccc(Cl)cn1,12,-6,13,2,0,12,4994
c1ccc(-c2csc(-c3cccnc3)n2)cc1,-8,-43,2.5,0,6,2,4404
COc1ccccc1C=NNC(=O)CC(=O)NCc1cccnc1,.,.,7.6,5,2,3,.
CCOc1cc(N2CCOCC2)c(OCC)cc1NC(=O)CN1C(=O)NC(Cc2ccccc2)C1=O (configuration not stated),5,-53,3.0,-5,.,.,4045
O=C1CCC(C2CCc3cc(O)ccc3C2)C1 (configuration not stated),.,-23,4.9,7,8,11,3593

# An unsorted share of the library; any-hit rate near 4%.
